Bioassay records as filed in PubChem BioAssay.
CtBP-E1A inh = qHTS Assay for Inhibitors of the CtBP/E1A Interaction | CtBP / adenovirus E1A interaction (AlphaScreen) | AlphaScreen GST-E1A/His-CtBP binding, 1536-well; active compounds read low; control for the full effect not named in the record | activity change, % (test concentration not listed) | 0.49% of 340,000 active | AID 651724, 2012; in the data active means activity change below about -65%; inconclusive means about -30% to -65%; inactive means above about -30%; also: % is scaled to controls: 0 for no effect and ±100 for the full control effect
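GST-E1A and His-tagged CtBP (125 nM each as 5X stock) were preincubated with pin-transferred compound for 2 h at 37 °C in the dark, then glutathione donor and nickel acceptor beads were added for 1 h before AlphaScreen reading.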
gsp antagonist = qHTS for Antagonists of gsp, the Etiologic Mutation Responsible for Fibrous Dysplasia/McCune-Albright Syndrome: qHTS; gsp-mutant cells, cAMP HTRF, 30 min; control for the full effect not named in the record; Potency, µM (doses to about 76.9 µM), without a hit: at the top dose activity change, negative = inhibition, hits mostly inhibitors; 0.4% of 340,000 active; AID 624288, 2012; active = falling curve of any shape with a large fitted effect; inconclusive = falling curve, mostly with a smaller effect; inactive = flat or rising curve; cell line not stated here;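 also: intracellular cAMP measured with PDE inhibitor Ro 20-1724 present during compound exposure; potency is read from the fitted curve at half-maximal effect; % is scaled to controls: 0 for no effect and ±100 for the full control effect; nearly all actives have a fitted effect of over 65% in size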
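Cells, 2000/well, grown 16–24 h in DMEM 10% FBS with 0.5 mg/ml G418, then compounds plus […] (300 uM addition stock), 30 min at 37C. cAMP read by HTRF (cAMP-d2 and anti-cAMP antibody-K in lysis buffer) after 30 min RT.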
D2 agonist = Beta-Arrestin HTS for Positive Allosteric Modulators of the Human D2 Dopamine Receptor: Agonists | activation, % (test concentration not listed) | D(2) dopamine receptor (Homo sapiens), P14416 | DiscoveRx PathHunter D2 beta-arrestin, luminescence, 90 min; 100% = 57 uM dopamine signal | 0.084% of 360,000 active; in the data active = activation above about 40%; inconclusive = about 15% to 40%; inactive = below about 15%; also: compound concentration not given in the record; the text of the record calls up to 30% inactive
Target sequence (P14416 whole entry, looked up): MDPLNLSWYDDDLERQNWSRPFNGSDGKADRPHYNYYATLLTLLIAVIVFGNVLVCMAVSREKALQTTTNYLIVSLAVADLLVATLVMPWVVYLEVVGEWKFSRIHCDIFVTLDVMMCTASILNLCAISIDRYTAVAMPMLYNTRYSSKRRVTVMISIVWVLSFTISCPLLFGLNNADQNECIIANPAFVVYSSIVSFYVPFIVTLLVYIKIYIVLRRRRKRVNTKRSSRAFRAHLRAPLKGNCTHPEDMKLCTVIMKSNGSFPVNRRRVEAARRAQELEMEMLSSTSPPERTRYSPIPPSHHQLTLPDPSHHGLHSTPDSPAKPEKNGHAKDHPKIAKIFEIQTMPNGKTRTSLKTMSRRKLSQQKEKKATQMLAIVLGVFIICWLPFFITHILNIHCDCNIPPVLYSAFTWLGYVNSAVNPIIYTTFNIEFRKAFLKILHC
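Agonist mode: compounds alone added to overnight-plated D2 PathHunter cells for 90 min at 37 C, with 57 uM final dopamine (EC100) defining full response. Beta-arrestin recruitment detected by chemiluminescent reagent, read after 1 h at ambient temperature.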
gsp ag = qHTS for Agonist of gsp, the Etiologic Mutation Responsible for Fibrous Dysplasia/McCune-Albright Syndrome: qHTS; gsp mutant cells, cAMP HTRF, 30 min; control for the full effect not named in the record; Potency, µM (doses to about 76.9 µM), for the others: top-dose activation (cAMP increase), most hits filed as activators; 0.13% of 340,000 active; AID 624287, 2012; active = well fitted activation curve with a large enough effect; inconclusive = small, poorly fitted or top-dose-only effect, or another doubt; inactive = no such curve, though single readings can be large or run the other way; cell line not stated here;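 also: phosphodiesterase inhibitor Ro 20-1724 added with compounds to block cAMP breakdown; potency is read from the fitted curve at half-maximal effect; nearly all actives have a fitted effect of over 60% in size; about a fifth of the inactives were tested at one dose only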
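Cells stably selected in G418 were plated at 2000/well, grown 16-24 hr, then given compounds in DMSO with the PDE inhibitor […] (300 uM solution added) for 30 min at 37C; cAMP was read by HTRF.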
D2 PAM = Beta-Arrestin HTS for Positive Allosteric Modulators of the Human D2 Dopamine Receptor: Potentiators | D(2) dopamine receptor (Homo sapiens), P14416 | DiscoveRx D2 beta-arrestin cells, luminescence, 90 min; 100% = 57 uM dopamine signal | potentiation, % (concentration not given with the values) | 0.23% of 360,000 active; active = potentiation of 50% or more; inconclusive = 30% to 50%; inactive = 30% or less;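 also: compound concentration not given in the record; tested on top of an EC20 dose of dopamine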
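D2 cells co-treated with compound plus 50 nM dopamine (EC20) for 90 min at 37 deg C to detect potentiation. Beta-arrestin recruitment was read as enzyme-fragment luminescence after 1 h at ambient temperature. Full response was set by 57 uM dopamine.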
Six1-Eya2 inh = qHTS Assay for Inhibitors of the Six1/Eya2 Interaction; activity change, % (test concentration not listed); AlphaScreen GST-Six1/His-Eya2 binding, biochemical; active compounds read low; control for the full effect not named in the record; Homeobox protein SIX1 (Homo sapiens) + Protein phosphatase EYA2 (Homo sapiens), …; 0.56% of 360,000 active; in the data active = activity change below about -65%; inconclusive = about -30% to -65%; inactive = above about -30%; also: % is scaled to controls: 0 for no effect and ±100 for the full control effect
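AlphaScreen with GST-Six1 and His-Eya2 (5X mix: 250 nM and 500 nM), glutathione donor and nickel acceptor beads; buffer 50 mM Tris pH 8.0, 300 mM NaCl, 1 mM TCEP; 1 h at 37 C in the dark.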
* hit, by the source's call; ? = inconclusive; / = not tested or not shown; [ ] = another dose, or the depositor's remark.

SMILES	CtBP-E1A inh	gsp antagonist	D2 agonist	gsp ag	D2 PAM	Six1-Eya2 inh
CCN(CC)S(=O)(=O)c1cc(NC(=O)CCCOc2ccc(C(C)=O)cc2)ccc1C	2	-19%	4.4	-35%[inhibitor]	-9	2
CC(=O)N(C(C)=O)c1ncnc2c1c(-c1ccc(Cl)cc1)nn2C(C)(C)C	1	?	-5.2	16%[15.4 µM]	-8	1
Cc1sc2nc(CN(C(=O)NC3CCCCC3)C3CCCC3)[nH]c(=O)c2c1C	6	-25%	3.8	-28%	0	1
O=C1ON=C(c2ccccc2)/C1=C/c1ccco1	23	-19%	-2.7	17%	-9	-14
COc1ccc(C(C)(C)C)cc1NC(=O)COC(=O)CN1C(=O)NC2(CCCCC2C)C1=O (stereo not drawn)	-2	0%	2.0	7%[15.4 µM]	-18	-3
Cc1ccc(NS(=O)(=O)c2ccc(C(=O)NC3CCN(Cc4ccccc4)CC3)cc2)cc1	-12	4%	1.9	12%	-26	-1
CCn1c(SCc2ccc(C)cc2)nnc1-c1nn(-c2ccccc2)ccc1=O	-15	-3%[15.4 µM]	-1.1	-9%	-5	-11
CCOC(=O)Cn1ccc(-c2ccccc2)c(C#N)c1=O	19	7%	-4.2	-20%	-9	21
NC(=S)N/N=C/c1cccc(Br)c1	2	-2%	0.4	7%[15.4 µM]	-1	1
CCCCN(C(=O)c1cccc(S(=O)(=O)N2CCOCC2)c1)c1c(N)n(CCC)c(=O)[nH]c1=O	/	11%	-5.6	15%	-12	1

Four compounds picked at random from those above, as already listed:
SMILES	CtBP-E1A inh	gsp antagonist	D2 agonist	gsp ag	D2 PAM	Six1-Eya2 inh
CCN(CC)S(=O)(=O)c1cc(NC(=O)CCCOc2ccc(C(C)=O)cc2)ccc1C	2	-19%	4.4	-35%[inhibitor]	-9	2
CCCCN(C(=O)c1cccc(S(=O)(=O)N2CCOCC2)c1)c1c(N)n(CCC)c(=O)[nH]c1=O	/	11%	-5.6	15%	-12	1
NC(=S)N/N=C/c1cccc(Br)c1	2	-2%	0.4	7%[15.4 µM]	-1	1
Cc1sc2nc(CN(C(=O)NC3CCCCC3)C3CCCC3)[nH]c(=O)c2c1C	6	-25%	3.8	-28%	0	1

More records:
SMILES	CtBP-E1A inh	gsp antagonist	D2 agonist	gsp ag	D2 PAM	Six1-Eya2 inh
O=C(O)CCC(=O)CCC(=O)c1ccccc1	17	11%	0.5	-1%	-3	3
COc1ccc(CC(=O)Nc2ccc(-c3noc(COc4ccccc4C)n3)cc2)cc1	1	4%[15.4 µM]	7.5	-17%	-7	10
O=C(c1ccc(Cl)cc1Cl)N1CCC(c2nc3c(nnn3Cc3ccco3)c(=O)[nH]2)CC1	-6	6%	-1.6	-28%	7	-20
Cc1ccc([N+](=O)[O-])cc1NC(=O)CCc1ccccc1	-1	7%	-3.8	18%[15.4 µM]	-13	8
O=C(Nc1cccnc1)c1coc(=O)c2ccccc12	-2	9%	-1.2	16%	-17	-3
CCCN(c1ccc(OCC)cc1)S(=O)(=O)c1ccc2c(c1)NC(=O)CO2	0	-30%	0.0	1%	-4	9
Cc1nnc(SCC(=O)NC2CCCCC2)n(N)c1=O	7	20%	-1.9	2%	-5	11
C[C@H](O)[C@@H]1C(=O)N2CCc3ccc(-c4cccc(F)c4)cc3[C@@H]2C[C@@H]1N(C)C(=O)C(C)(C)C	1	-13%	-2.2	/	-10	-1
CC(CCn1cccn1)NC(=O)c1cc(COc2ccc(F)cc2Cl)on1 (stereo not drawn)	0	2%	-4.8	-4%	-8	11
CCNC(=S)N(Cc1cc2cc(C)ccc2[nH]c1=O)C1CCCC1	-8	-2%	0.2	?	0	-5
COc1ccc(NC(=O)c2ccc3nc[nH]c3c2)c(OC)c1	-1	2%	-2.6	-6%[15.4 µM]	-1	-12
O=C(CCN1C(=O)COc2ccccc21)NCc1cccs1	11	-6%	1.2	-127%[inhibitor]	-12	3
O=C(NC12CC3CC(CC(C3)C1)C2)c1cc(F)c(F)c(F)c1F	7	1%	1.6	2%[15.4 µM]	-1	8
CC(/C=N/NC(=O)c1ccncc1)=C\c1ccc(C(C)C)cc1	2	-29%	6.0	-6%	15	-1
O=C(NCc1cccnc1)/C(=C\c1ccc(-c2ccc(Br)cc2)o1)S(=O)(=O)c1ccccc1	18	-4%	3.6	0%[15.4 µM]	-29	-9
CC(=O)N1CCN(c2ccccc2NC(=O)COc2cc(C)cc(C)c2)CC1	16	-11%	3.4	-2%[15.4 µM]	2	-1
CC(C)Oc1ccc(C(=O)O)cc1	11	9%	2.2	9%	0	3
CS(=O)(=O)c1ccc(C(=O)NCCN2C(=O)S/C(=C\c3cccnc3)C2=O)cc1[N+](=O)[O-]	/	0%	?	?	-13	-3
O=[N+]([O-])c1cc(/C=N/O)ccc1Oc1cccc(Cl)c1	-22	6%	-2.1	-37%[15.4 µM]	-2	-11
Cc1cccc(NC(=O)CSc2nnc(C)c(=O)n2N)c1	-9	12%	-2.7	-1%[15.4 µM]	3	6
Cc1ccc(C(=O)C2CCN(S(=O)(=O)c3c(C)noc3C)CC2)cc1	-12	-9%	-2.2	8%[15.4 µM]	-4	-2
C=CCNC(=O)CC1C(=O)NCCN1Cc1c(F)cccc1Cl (stereo not drawn)	/	-1%	0.9	17%	-4	-4
CCOC(=O)C1=C(C)N=c2s/c(=C\c3ccc(C(=O)O)cc3)c(=O)n2C1c1ccc(OC)cc1OC (stereo not drawn)	5	?	-0.1	9%	-4	-4
CC(C)(CO)Nc1ncnc2onc(-c3ccc(F)cc3)c12	0	-7%	0.5	-2%	5	2
COCCCn1c(SCC(=O)N2CCCC2=O)nc2ccccc2c1=O	2	/	-2.7	0%	-4	0
Cc1cnc(C(=O)OCC(=O)NCc2ccc(Cl)cc2)cn1	4	3%	2.4	-21%	-3	10
CN(Cc1ccc(F)cc1)C(=O)c1cccc(S(=O)(=O)N2CCN(Cc3ccccc3)CC2)c1	-16	-11%	3.7	-29%[15.4 µM]	3	0
COCCCn1c(C2CCCCC2)nc2oc3cc(OC)ccc3c(=O)c2c1=O	-2	0%	-2.0	15%	-1	-1
COC(=O)c1cccc(NC(=O)Cn2cnc3ccccc3c2=O)c1	2	5%	-2.3	-12%	-5	-1
O=C(NCc1ccccc1)C(c1cccnc1)N(C(=O)c1ccccn1)c1ccccc1F (stereo not drawn)	3	-2%	-5.2	24%	-6	10
CC(=O)c1ccc(C(=O)N(C)C2CCCN(Cc3ccccc3F)C2)s1 (stereo not drawn)	3	3%	-7.1	0%[15.4 µM]	-3	0
COc1cc(/C=C2\C(=N)N3N=C(C(C)C)SC3=NC2=O)ccc1OCCOc1ccc(NC(C)=O)cc1	-7	-2%	-2.5	-14%	7	16
COc1cccc(/C=N/N2CCOCC2)c1O	4	7%	1.7	12%	-3	2
N#C/C(=C/c1ccc(N2CCCCC2)o1)C(=O)NCCc1c[nH]c2ccccc12	9	-19%	-3.1	1%	-11	-12
COc1ccccc1NC(=O)C1CC(O)CN1C(=O)Oc1ccccc1 (stereo not drawn)	7	2%	-1.6	-2%	2	6
Cc1cc(-c2nc3ncccc3o2)ccc1N	-4	1%	-1.8	16%	-5	-2
CCOc1ccc(N2C(=O)C3C(c4ccc(O)cc4)NC(CCSC)(C(=O)OC)C3C2=O)cc1 (stereo not drawn)	0	/	5.5	8%[15.4 µM]	-7	-1
CC(C)COc1ccc(C(=O)Nc2sc3c(c2C(=O)O)CC(C)(C)OC3)cc1	3	?	-4.0	-10%[15.4 µM]	-3	-10
NC(=O)CC(NC(=O)c1ccc(Br)cc1)c1ccc(N2CCCCCC2)c([N+](=O)[O-])c1 (stereo not drawn)	/	-19%	-2.5	?	-11	-20
CN(C)S(=O)(=O)c1ccc(NC(=O)CCNC(=O)c2ccco2)cc1	1	9%	-2.1	-4%[15.4 µM]	-2	0
C[C@H](CO)N1C[C@H](C)[C@@H](CN(C)S(=O)(=O)c2ccc3ccccc3c2)OCc2cnnn2CCCC1=O	-22	/	2.4	-17%	5	9
Cc1ccc(CCNC(=O)CN2C(=O)CSc3ccc(S(=O)(=O)N4CCOCC4)cc32)cc1	4	/	-1.9	-42%[inhibitor]	-12	1
CC(C)Cn1cc(C(=O)NCc2cccs2)c2c3ccccc3n(C)c2c1=O	2	-5%	0.0	-1%	-5	2
Cn1c(CSCc2ccc(Cl)cc2)n[nH]c1=S	-18	-4%	1.7	?	-15	-8
CC(NC(=O)c1cc(F)c(F)c(F)c1F)c1ccc(-n2ccnc2)cc1 (stereo not drawn)	0	23%	-3.7	?	-5	6
CSc1ccccc1NC(=O)C1=COCCO1	11	-10%	0.8	-41%[inhibitor]	5	0
Cc1ccc(CSc2nnc(-c3ccco3)o2)cc1	3	-2%	?	7%[15.4 µM]	-12	16
CC(=Nc1ccc(Br)cc1)c1sc2ccccc2c1O	11	-9%	-10	-35%[inhibitor]	-8	32
COc1ccc(C2=NOC(C(=O)Nc3ccc4c(c3)OCO4)C2)cc1OC (stereo not drawn)	0	-1%	1.0	-46%[inhibitor]	-5	-4
CCc1cccc(NC(=O)c2cc(S(=O)(=O)N(C)C)ccc2N2CCCC2)c1	4	-14%	-4.9	5%[15.4 µM]	-1	0

More compounds follow:
SMILES	CtBP-E1A inh	gsp antagonist	D2 agonist	gsp ag	D2 PAM	Six1-Eya2 inh
COc1cc(/C=N/NC(=O)c2ccc3c(c2)OCCO3)cc(Cl)c1O	/	-18%	-3.0	17%	-6	1
CCOC(=O)C1=NNC(C(=O)c2ccc(OC)cc2)C1c1ccccc1 (stereo not drawn)	5	-5%	-5.3	10%	1	-7
COc1cc(C(C)=O)ccc1OC(=O)C(C)N1C(=O)c2ccccc2C1=O (stereo not drawn)	5	-18%	-1.7	-1%	-9	?
CCC(=O)N(CCc1ccccc1)Cc1cc2cc3c(cc2[nH]c1=O)OCO3	46	22%	-2.4	-7%	3	27
COc1ccc(-c2nnc(SC(C)C(=O)Nc3c(C)n(C)n(-c4ccccc4)c3=O)o2)cc1 (stereo not drawn)	-1	13%	-2.9	8%	-21	-21
COc1cc(NC(=O)Nc2cccc([N+](=O)[O-])c2)cc(OC)c1	0	/	-1.8	0%[15.4 µM]	-16	-1
Cn1cc(CN2CCN(CCc3ccccc3)C(CCO)C2)cn1 (stereo not drawn)	8	14%	-2.7	?	-5	2
COc1ccc(NC(=O)CN(c2ccc([N+](=O)[O-])cc2)S(=O)(=O)c2ccccc2)c(OC)c1	-19	-1%	-3.1	-6%[15.4 µM]	-7	-16

Random draw from the library; about 1.4% have a hit in one of these screens.
